VACV mCherry inh = inhibitors of vaccinia virus infection (mCherry reporter signal); Vaccinia virus mCherry reporter infection, fluorescence; about a quarter of the inactives have no number; Potency, µM (titrated, usually from 36.5 µM), without a hit: at the highest dose activity change, negative = inhibition, usual class: inhibitors; 0.63% of 310,000 active; active = well fitted inhibition curve with a large enough effect; inconclusive = small, poorly fitted or top-dose-only effect; inactive = no such curve, though single readings can be large or run the other way; tested in A549 cells; further: nearly all actives have a fitted effect of over 35% in size; inactives centre near -10
Vaccinia Venus = inhibitors of vaccinia virus (Venus reporter); Vaccinia virus Venus reporter expression, fluorescence; Potency, µM (top dose mostly 36.5 µM), without a hit: at the highest dose activity change, negative = inhibition, hits mostly inhibitors; 0.46% of 330,000 active; active means well fitted inhibition curve with a large enough effect; inconclusive means small, poorly fitted or top-dose-only effect; inactive means no such curve, though single readings can be large or run the other way; tested in A549 cells; further: nearly all actives have a fitted effect of over 30% in size; inactives centre near -10
The depositor's hits bear a star; i = inactive; ? = inconclusive; · = not tested or not shown; [ ] = another dose, or the depositor's remark. On the % scale 0 is the no-effect control and ±100 the full control effect; potency means the concentration at half of the fitted maximal effect.

| compound | Vaccinia Venus | VACV mCherry inh |
| --- | --- | --- |
| CC(C)CN(C(=O)CN1CCN(S(=O)(=O)c2ccc3ccccc3c2)CC1)c1c(N)n(CC(C)C)c(=O)[nH]c1=O | -14% | -4% |
| COc1ccc(NC(=O)C(c2ccc(OC)cc2)N(Cc2ccco2)C(=O)CC2NC(=O)NC2=O)cc1 (centres undefined) | 2% | 7% |
| COc1cc(-c2coc3c(C(=O)NCc4ccccc4)cccc23)ccc1O | -28% | 7% |
| Cc1ccc(CN2CCN(Cc3cn[nH]c3-c3cccc(F)c3)CC2CCO)o1 (centres undefined) | 2% | -3% |
| Cc1ccccc1Cn1c2ccccc2c2cnn(CC(=O)NCCc3ccc(Cl)cc3)c(=O)c21 | -15% | -21% |
| CCc1ccc(Nc2nc(C)cc(C)c2C(N)=O)cc1 | -11% | -16% |
| CCN(CC(=O)Nc1ccc(NC(C)=O)cc1)C(=O)Cc1ccc(Cl)c(Cl)c1 | -1% | -6% |
| CCCN(CC1COc2ccccc2O1)C(=S)Nc1ccc(C)cc1 (centres undefined) | -25% | -11% |
| O=C(Nc1ccccc1C(F)(F)F)c1cc(S(=O)(=O)N2CCOCC2)ccc1F | -10% | -14% |
| CC(=O)OCC(=O)[C@H]1CC[C@H]2[C@@H]3CCC4=CC(=O)CC[C@]4(C)[C@H]3CC[C@]12C | -17% | i |
| CC(NC(=O)COC(=O)C1CCC1)c1ccccc1 (centres undefined) | -18% | -14% |
| COc1ccc(C(=O)N/C(=C\c2cc(OC)c(OC)cc2[N+](=O)[O-])C(=O)NCCO)cc1 | 8% | 3% |
| O=C(O/N=C1\CCCc2ccccc21)C1CC1 | 6% | i |
| Cc1noc(C)c1S(=O)(=O)N1CCCC(C(=O)Nc2cccnc2)C1 (centres undefined) | -7% | -15% |
| O=C(COC(=O)/C=C/c1ccc(S(=O)(=O)N2CCOCC2)cc1)NCc1ccc(Cl)cc1 | -9% | -1% |
| CC(=O)N1CCc2cc(Br)cc(S(=O)(=O)NCCN3CCCCC3C)c21 (centres undefined) | 1% | -16% |
| CCCCN(C(=O)/C=C/c1ccco1)c1c(N)n(CC(C)C)c(=O)[nH]c1=O | -3% | -19% |
| Cc1cccc(N2C(=O)c3ccc(C(=O)Nc4ccccn4)cc3C2=O)c1 | -11% | -3% |
| CCOc1ccc(NC(=S)N(CCN2CCOCC2)Cc2cc3cc4c(cc3[nH]c2=O)OCCO4)cc1 | -6% | i |
| C=CCN(CC=C)CC(O)CN(c1cc([N+](=O)[O-])ccc1OC)S(=O)(=O)c1ccccc1 (centres undefined) | -11% | -10% |

| compound | Vaccinia Venus | VACV mCherry inh |
| --- | --- | --- |
| Cc1cccc(NC(=O)C2CCN(S(=O)(=O)c3cccc4cccnc34)CC2)c1 | -3% | 0% |
| Nc1nc(Nc2ccccc2)n[nH]1 | 0% | -11% |
| COc1ccc(-c2noc(CN(C(=O)c3ccc(OC(C)=O)cc3)C(C)C)n2)cc1OC | -15% | · |
| NC(=O)c1ccccc1NS(=O)(=O)c1ccc(F)cc1 | -4% | -14% |
| CCN1CCCC1CN(Cc1cc2cc(C)ccc2[nH]c1=O)C(=O)Nc1ccccc1OC (centres undefined) | -2% | -7% |
| Cc1ccc2c(=O)c(C(=O)c3ccc(F)cc3)cn(CC(=O)NCc3ccccc3)c2n1 | -7% | -14% |
| CCOC(=O)c1c(C)c2c(n1C)CCC/C2=N\O | -15% | · |
| Cc1ccccc1NC(=O)c1cccc(C(=O)Nc2ccccc2C)n1 | -11% | -18% |
| Cc1cc(OCC(=O)NNC(=S)NCC2CCCO2)cc(C)c1Cl (centres undefined) | -13% | -2% |
| c1ccc(Cn2c(Nn3cnnc3)nc3ccccc32)cc1 | -11% | -17% |
| COc1ccc2c(c1)[C@H]1[C@H](CO2)[C@H](c2ccccc2)[C@]2(C)C(=O)Nc3ccc(C)cc3C(=O)N12 | ? | -28% |
| O=C(c1ccco1)N1CCN(C(=O)C2CC(c3ccc(Cl)cc3)=NO2)CC1 (centres undefined) | -11% | -14% |
| CN(C)C(=O)c1ccc(-c2nc(N(C)C)c3ccccc3n2)cc1 | 0% | i |
| N#CC(C(=O)OC1CCCCC1)c1nc2ccccc2nc1N1CCOCC1 (centres undefined) | 3% | -6% |
| Cc1ccc(C(=O)Nc2c(-c3ccc(Cl)cc3)[nH][nH]c2=O)cc1 | -9% | 0% |
| COc1nc(-c2ccccc2)c2cc(C)ccc2n1 | -10% | -25% |
| Cc1cc(C)c(C(=O)Nc2ccc(Br)c(C(F)(F)F)c2)c(C)c1 | -19% | -3% |
| O=C(Cn1nnc2ccccc21)c1cccc([N+](=O)[O-])c1 | 4% | i |
| COc1ccc(CCCC(=O)Nc2ccccc2F)cc1 | -7% | -10% |
| O=C(O)c1cn(-c2ccc(F)cc2)c2cc(Cl)c(F)cc2c1=O | 2% | -2% |

Single records, as listed above.
O=C(O)c1cn(-c2ccc(F)cc2)c2cc(Cl)c(F)cc2c1=O as listed: Vaccinia Venus: 2%; VACV mCherry inh: -2%
COc1nc(-c2ccccc2)c2cc(C)ccc2n1 as listed: Vaccinia Venus: -10%; VACV mCherry inh: -25%
CN(C)C(=O)c1ccc(-c2nc(N(C)C)c3ccccc3n2)cc1 as listed: Vaccinia Venus: 0%; VACV mCherry inh: i

Other results follow.
| compound | Vaccinia Venus | VACV mCherry inh |
| --- | --- | --- |
| Cc1c(NS(=O)(=O)c2ccc(N)cc2)c(=O)n(-c2ccccc2)n1C | -14% | -1% |
| CCCC(=O)n1nc(-c2cccnc2)nc1NCc1cccs1 | -4% | i |
| Cc1ccc(S(=O)(=O)CCC(=O)NCc2ccc(Cl)cc2)cc1 | 4% | -11% |
| COCCNC(=O)CSC1=N/C(=C/c2ccc(Cl)c(Cl)c2)C(=O)N1c1ccccc1F | -21% | i |
| O=C(Nc1ccccc1)c1cccc(N2CCCC2=O)c1 | 8% | 18% |
| CCCCNS(=O)(=O)c1ccc(N2CCCCS2(=O)=O)cc1 | -12% | -5% |
| N#Cc1nc(-c2ccc(F)cc2)oc1NCc1cccc2c1OCO2 | -9% | -9% |
| O=C(C1CCC(C(=O)N2CCCCC2)CC1)N1CCCCC1 (centres undefined) | -35% | · |
| CCOc1ccc(CN2CCN(Cc3cccn3-c3ncccn3)CC2CCO)cc1 (centres undefined) | 6% | i |
| O=C1CC(c2ccccc2)Cc2[nH]c(=O)c(-c3nc(-c4ccc(F)cc4)cs3)cc21 (centres undefined) | -23% | -25% |
| CC1CC(C)CN(c2nc3c(c(=O)[nH]c(=O)n3C)n2CCCSc2nc3ccccc3s2)C1 (centres undefined) | -2% | -10% |
| CCOC(=O)C1CCN(C(=O)Nc2cc(Cl)cc(Cl)c2)CC1 | 3%[7.34 µM] | -14%[7.34 µM] |
| CC(=O)CC(c1ccccc1)S(=O)(=O)c1ccc([N+](=O)[O-])cc1 (centres undefined) | -9% | i |
| O=C(NC(=O)c1cnccc1C(F)(F)F)Nc1ccccc1 | -5%[7.34 µM] | -2%[7.34 µM] |
| Cc1cc(C)n(-c2ccc(Cl)c(C(=O)O)c2)n1 | -14% | i |
| CCc1ccccc1NC(=O)N1CCN(c2nnc(C)c3c(C)n(-c4ccccc4)nc23)CC1 | -29% | -24% |
| CCc1nn(CC(=O)NCC(C)c2ccccc2)c(=O)c2cc3c(OC)cccc3n12 (centres undefined) | 10% | -13% |
| CCCCCCCOC(=O)c1nc(Cl)c(Cl)c(N)c1Cl | -15% | -19% |
| Cc1ccc(NC(=O)c2cc(N3C(=O)CCC3=O)ccc2N2CCCCC2)cc1 | -17% | -4% |
| COc1cc(Nc2cc(C)nc3ncnn23)cc(OC)c1 | -13% | -23% |

| compound | Vaccinia Venus | VACV mCherry inh |
| --- | --- | --- |
| COc1ccc2c(c1)c1c(c(=O)n(-c3ccccc3C)c(=O)n1CC(=O)Nc1c(C)cccc1C)n2C | -17% | -18% |
| CCCN(CC(=O)Nc1ccccc1OC)Cc1c(O)ccc2ccccc12 | -19% | -24% |
| CCOc1ccc(C(=O)Nc2ccc(N3CCN(C)CC3)cc2)cc1[N+](=O)[O-] | -4% | ? |
| COc1cccc(OC)c1C(=O)N1CCOCC1 | -2% | i |
| O/N=C/c1nc2cc(Cl)ccc2o1 | 0% | -10% |
| O=C(O)c1cc(-c2ccc(O)cc2)on1 | 1% | i |
| CC1(C(=O)O)C=CC2(CCCCC2)N1C(=O)c1ccccc1 (centres undefined) | -8% | i |
| COc1cc(-c2noc(CSc3nc(-c4ccccc4)cc(=O)[nH]3)n2)cc(OC)c1OC | -7% | -15% |
| COc1cccc(-c2nnc(SCC(=O)N3CCOCC3)o2)c1 | -27% | · |
| COc1ccccc1CNS(=O)(=O)c1ccc2c(c1)N(C(C)=O)CC(C)S2 (centres undefined) | -12% | -20% |
| CCCOc1ccc(/C(O)=C2/C(=O)C(=O)N(CCCn3ccnc3)C2c2cccnc2)cc1 (centres undefined) | 9% | -29% |
| CC(C)C(=O)NC(=S)/C=C1/N(C)c2ccccc2C1(C)C | 29% | i |
| COc1ccc(N2CCN(c3ncnc4c3nnn4Cc3ccccc3Cl)CC2)cc1 | -15% | · |
| COc1ccc(S(=O)(=O)N2CCN(c3ccccc3OC)CC2)cc1C(=O)N1CCCCC1 | -16% | -14% |
| NC(Cc1ccccc1)c1csc(NC(=O)Nc2ccccc2Oc2ccccc2)n1 (centres undefined) | ? | ? |
| O=C(O)C(Cc1ccccc1)N1C(=O)C2C3CCC(C3)C2C1=O (centres undefined) | -2% | -7% |
| CC1CCN(CC(O)Cn2c3ccccc3c3ccccc32)CC1 (centres undefined) | -22% | -6% |
| CN(N)C(=S)Nc1ccc(F)cc1 | -7% | ? |
| CCCCn1c(N)c(N(CCOC)C(=O)c2ccc(S(=O)(=O)N3CCC(C)CC3)cc2)c(=O)[nH]c1=O | 4% | i |
| Cc1nn(-c2ccc(N3CCOCC3)nn2)c(C)c1CCC(=O)NCc1ccccc1F | -6%[7.34 µM] | -15%[7.34 µM] |

| compound | Vaccinia Venus | VACV mCherry inh |
| --- | --- | --- |
| COc1cccc(C(c2nnnn2Cc2ccccc2)N2CCC(n3c(=O)[nH]c4ccccc43)CC2)c1OC (centres undefined) | -24% | -11% |
| C=CCNC(=O)C1CC(=O)N(c2ccc(OCC(=O)NCc3ccccc3)cc2)C1 (centres undefined) | -23% | · |
| CC(=O)N1CCc2cc(Br)cc(S(=O)(=O)CCC(=O)Nc3ccc(C)cc3Cl)c21 | -15% | -21% |
| CCn1cc(C(=O)N[C@@H](C)C(=O)NCCCN2CCOCC2)c(=O)c2cc3c(cc21)OCO3 | -10% | i |
| CCOC(=O)N1CCN(C(=O)C2CCCN(S(=O)(=O)c3c(C)cc(C)cc3C)C2)CC1 (centres undefined) | -29% | -14% |
| Cn1c(=O)c2c(ncn2CC(=O)OCC(=O)NC(c2ccccc2)c2ccccc2)n(C)c1=O | -12% | -21% |
| CC(=O)Nc1nc(CCC(C)C)cc2c1c(=O)oc1ccccc12 | -13% | -7% |
| O=C(CC1C(=O)NCCN1Cc1ccccc1C(F)(F)F)NC1CCC1 (centres undefined) | -14% | -12% |
| CCN=c1sc(C(=O)Nc2ccccc2)c(C)n1CC | 5% | -9% |
| CCN1C(=O)[C@H]2[C@@H](c3ccc(C)cc3)N3C(=O)N(c4cccc(Br)c4)C(=O)[C@@]3(CC(C)C)[C@H]2C1=O | -19% | i |
| Clc1cccc(Cl)c1C[n+]1cccc2ccccc21 | -18% | -28% |
| CCN1C=CC2=C(C#N)C(N)C(C#N)(C#N)C(c3ccccc3C(F)(F)F)C2C1 (centres undefined) | 16% | · |
| COc1ccc(S(=O)(=O)Nc2cc3c4c(c2)CCC(=O)N4CCC3)cc1C | -26% | -8% |
| CCCCC(=O)N/N=C(/C)C1=C(C)C(C)(C)OC1=O | 0% | -15% |
| COc1ccccc1OCC(=O)N1CCCC(Nc2ccc(C)c(C)c2)C1 (centres undefined) | -17% | i |
| COc1ccc(CCNS(=O)(=O)c2ccc3c(c2)NC(=O)CCS3)cc1OC | -23% | -7% |
| CCOc1ccc(CCNC(=O)Cn2c(-c3cccs3)cc3cc(F)ccc32)cc1OCC | ? | ? |
| O=C(C1CC(=O)N(c2ccc(F)c(Cl)c2)C1)N1CCOCC1 (centres undefined) | 5% | i |
| O=C1C(c2cccc(Br)c2)N(CCc2ccccc2)C(=O)CN1C1CCCCC1 (centres undefined) | -6% | -7% |
| CCc1c(C)nc2ncnn2c1N1CCCC(C(=O)Nc2cc(F)ccc2C)C1 (centres undefined) | ? | · |

| compound | Vaccinia Venus | VACV mCherry inh |
| --- | --- | --- |
| CC(=O)c1ccc(S(=O)(=O)N2CCN(C)CC2)cc1 | -17% | -1% |
| CCc1nnc(NC(=O)c2cnccn2)s1 | -9% | -8% |
| Fc1cccc(Cl)c1CNCc1cccnc1 | -18% | i |
| O=C(Nc1ccc(Cl)cn1)c1ccc(Br)c(S(=O)(=O)N2CCCCC2)c1 | -7% | i |
| COc1cc2c(C(=O)NCCCN3CC(C)CC(C)C3)cn(CC(C)C)c(=O)c2cc1OC (centres undefined) | -18% | -28% |
| CCN(CC)CCNC(=O)Cn1nc(-c2ccccc2)c2ccccc2c1=O | -10% | -15% |
| O=C(O)c1cccc(Nc2nc(-c3ccccc3)nc3ccccc23)c1 | -15% | -2% |

Exported field by field: part of the list above.
canonical_smiles: CCN(CC)CCNC(=O)Cn1nc(-c2ccccc2)c2ccccc2c1=O
- Vaccinia Venus: -10%
- VACV mCherry inh: -15%
canonical_smiles: O=C(O)c1cccc(Nc2nc(-c3ccccc3)nc3ccccc23)c1
- Vaccinia Venus: -15%
- VACV mCherry inh: -2%
